# Vif TR-FRET: HIV-1 Vif–A3G interaction blockers – biochemical, TR-FRET, GST-Vif 1-94, biotin-A3G peptide, dose response retest, primary screen (AID 1117319) | TR-FRET GST-Vif / biotin-A3G peptide binding; higher % means a stronger effect; test concentration not given here; strong numbers were not always called active | inhibition, %; hits with a dose series show IC50 in µM | 260,000 compounds, 0.57% hits;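 active means above the screen mean plus three standard deviations and confirmed in dose response; inconclusive means results disagree or hit not tested in dose response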;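 further: Vif residues 1-94 fused to GST binding biotinylated APOBEC3G peptide 110-148; 0% = full assay without inhibitor and 100% = GST in place of GST-Vif; retest series ran down from 100 µM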
# UCH37 DUB inh: inhibitors of human deubiquitinating enzyme UCH37; 330,000 compounds, 0.33% hits; purified proteasome/UCH37, Ub-AMC cleavage fluorescence; AID 588478; inhibition, % (no concentration beside the values);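 active means mean of two replicates above 20%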;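 further: 0% = compound-free wells with enzyme and 100% = wells lacking proteasome; stock transfer was 100 nL into about 20 µL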
# Target sequence (Q9Y5K5 whole entry, looked up): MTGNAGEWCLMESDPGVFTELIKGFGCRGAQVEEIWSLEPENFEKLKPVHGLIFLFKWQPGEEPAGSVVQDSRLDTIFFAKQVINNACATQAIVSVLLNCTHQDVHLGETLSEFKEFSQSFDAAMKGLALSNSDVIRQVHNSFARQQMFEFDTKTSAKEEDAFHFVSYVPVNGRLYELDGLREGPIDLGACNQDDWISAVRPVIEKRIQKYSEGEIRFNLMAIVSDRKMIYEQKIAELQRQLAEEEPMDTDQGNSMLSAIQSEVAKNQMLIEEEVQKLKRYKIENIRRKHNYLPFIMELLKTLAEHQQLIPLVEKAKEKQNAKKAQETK
#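 assay system = human UCH37 enzyme supplied as purified proteasome complex | amount = proteasome at 0.15 nM in the dispensed enzyme solution | schedule = 30 min compound-proteasome preincubation then 25 min substrate reaction, room temperature | measured by = fluorescence, ex 355 nm, em 460 nm | benchmarks = no-proteasome wells (full inhibition) and compound-free wells (no inhibition)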
# E coli growth: inhibitors of Escherichia coli growth | 330,000 compounds, 0.21% hits | OD600 absorbance (test concentration not listed) | OD600, 23 h; active compounds read low | AID 1053175;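 active means OD600 absorbance below the run mean of sample wells minus 3.6 SD, in any replicate, cut at about 0.56 in these data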;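 further: stock transfer was 300 nL into about 60 µL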
# MLL AF4-AF9 inh: inhibitors of human MLL-AF4/AF9 interaction; 350,000 compounds, 0.47% hits; P42568; AID 651704; inhibition, % at 10 µM; AlphaScreen, biotin-AF4 peptide binding to FLAG-AF9;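 active means every replicate reaching a set inhibition limit, whatever the replicate mean, cut at about 25% in these data; inconclusive means mean inhibition reaches that limit but some replicates miss it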;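 further: 0% = plate neutral control median and 100% = total signal loss; the record names both 10 and 1 µM as test concentration; the first replicate is given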
# FGF22 binding: binders of recombinant human FGF22 by thermal shift. SYPRO orange fluorescence; percent of sucrose octasulfate shift, DMSO zero. calls only at 9.99 µM. 340,000 compounds, 1.5% hits;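 active means melting point raised past a set limit in the mean and every replicate; inconclusive means no clear call; three in four hits are not shown here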
# Target sequence (Q9HCT0 whole entry, looked up): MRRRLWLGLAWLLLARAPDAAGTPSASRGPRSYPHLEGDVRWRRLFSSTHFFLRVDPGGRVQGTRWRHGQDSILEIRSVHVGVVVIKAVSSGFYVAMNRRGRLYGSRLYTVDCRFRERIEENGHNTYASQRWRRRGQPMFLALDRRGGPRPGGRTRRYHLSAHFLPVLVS
# RanGTP-Impb inh: disruptors of Ran-importin-beta complex formation – biochemical, FRET, CFP-Ran, YFP-importin-beta, homogeneous, primary screen; cell-free CFP-Ran/YFP-importin-beta FRET ratio; inhibition, % (concentration not given with the values); 300,000 compounds, 1.1% hits;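 active means most replicates above 15%; inconclusive means exactly half above 15%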;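 further: 0% = DMSO wells and 100% = Ran loaded with GDP instead of GTP; wells of about 40 µL received 100 nL stock; the first replicate is given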
# HNF4A DNA FP: change in binding of human HNF4 alpha to DNA. 360,000 compounds, 0.3% hits. HNF4a-FITC DNA binding, fluorescence polarization, 1 h. P41235. activity change, % at 10 µM; in the data active means activity change above about 30%, passing the limit was not always enough;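 further: controls were the assay level and a saturating level of protein; the project sought stronger binding though the title names inhibitors; some compounds called inactive have numbers as strong as hits; positive values seem to mean higher polarization but the record does not say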
# Target sequence (P41235 whole entry, looked up): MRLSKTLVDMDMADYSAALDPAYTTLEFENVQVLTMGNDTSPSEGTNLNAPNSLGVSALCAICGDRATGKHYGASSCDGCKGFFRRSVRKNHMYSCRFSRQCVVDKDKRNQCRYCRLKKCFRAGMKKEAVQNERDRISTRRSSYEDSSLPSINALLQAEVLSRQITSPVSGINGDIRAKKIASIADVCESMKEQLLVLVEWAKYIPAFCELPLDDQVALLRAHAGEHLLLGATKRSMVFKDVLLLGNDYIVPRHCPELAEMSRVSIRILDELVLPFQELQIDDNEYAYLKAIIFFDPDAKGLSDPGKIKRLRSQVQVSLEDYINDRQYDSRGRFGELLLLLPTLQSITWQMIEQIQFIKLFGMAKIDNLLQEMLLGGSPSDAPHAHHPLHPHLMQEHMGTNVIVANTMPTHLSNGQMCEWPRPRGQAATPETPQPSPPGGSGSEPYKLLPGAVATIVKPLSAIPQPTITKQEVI
# * marks the source's active call; other numbers are inactive results; i = inactive; ? = inconclusive; nt = not tested or not shown; + = active, no number; & = joins results of further samples. The list is partial. The share of hits here may be higher or lower than overall.
SMILES,Vif TR-FRET,UCH37 DUB inh,E coli growth,MLL AF4-AF9 inh,FGF22 binding,RanGTP-Impb inh,HNF4A DNA FP
COc1ccc(N2CCN(S(=O)(=O)c3c(C)[nH]c(C)c3C(=O)N3CCCC3)CC2)cc1,nt,3.9,0.69,-1.8,i,2.8,0.1
COc1ccc(-c2cn(Cc3ccc(C(N)=O)cc3)c(-c3ccc(Cl)nc3)n2)cc1,nt,-1.2,0.69,4.2,i,nt,-3.2
CCOc1ccc(-c2cnc3n2CCCCC3)cc1,2%,1.4,0.62,5.6,i,-1.2,-0.7
Cc1nn(Cc2ccc(F)cc2)c(C)c1NC(=O)c1cnn2cccnc12,4%,2.2,0.71,nt,nt,-0.5,0.3
COc1ccc(C(=O)CC(=O)c2ccccc2O)cc1,nt,-15,0.72,3.6,i,-3.5,2.0
CCOc1cc(NC(=S)Nc2ccccc2OC)c(OCC)cc1NC(=O)c1ccccc1C,14%,1.4,0.73,nt,nt,-9.5,-2.0
COc1ccc(NC(=O)CCn2c(=S)[nH]c3ccccc3c2=O)cc1Cl,-3%,nt,nt,-4.4,i,nt,42*
CN(C)C(=S)Nc1ccc(Br)cc1Cl,30%,2.8,0.71,nt,i,-0.2,3.2
Cc1cc(C)n(-c2ccc(C(=O)N3CCN(S(=O)(=O)c4cccc(Br)c4)CC3)cc2)n1,nt,-3.1,0.66,0.3,i,nt,-1.4
O=C1c2ccccc2C(O)(Cc2ccccc2)N1c1ccc2c(c1)OCO2 (stereo unspecified),11%,-0.6,0.71,nt,nt,7.2,-0.6
CC1=CCC2C(=O)N(c3ccc(C(=O)Nc4ccccc4Cl)cc3)C(=O)C2C1 (stereo unspecified),-1%,1.8,0.69,1.1,i,1.4,-3.8
COc1ccc(C2CC(=O)C3=C(C2)Nc2ncnn2C3c2ccccc2C)c(OC)c1 (stereo unspecified),9%,1.4,0.72,nt,nt,3.7,0.6
COc1cc(OC)cc(-c2c(C#Cc3ccsc3)c3cc(-c4cc(OC)c(OC)c(OC)c4)ccc3n2C)c1,nt,3.0,0.83,-2.5,i,nt,5.5
O=C(O)c1ccccc1-c1ccccc1C(=O)Nc1ccc2c(c1)C(=O)c1ccccc1-2,3%,4.8,0.65,6.5,nt,nt,-4.4
CSc1nsc(SCc2cnc(C)nc2N)n1,?,2.8,0.65,nt,nt,2.3,0.5
COc1ccc2c(c1)C(C)=CC(C)(C)N2C(=O)CSc1nnc(-c2ccc(C)cc2)o1,4%,0.0,0.74,nt,nt,1.7,-2.9
CN1C[C@@H]2[C@@H]3C(=O)N(Cc4ccccc4)C(=O)[C@@H]3[C@](C)(C1=O)N2C(=O)c1ccc(Br)cc1,nt,6.9,nt,0.7,i,nt,-1.3
CCc1nc2ccc(C(=O)NCCCN3CCCC3=O)cn2c1N(CC)Cc1cccc(Br)c1,nt,nt,nt,-9.7,i,nt,-1.4
CN(Cc1ccon1)C(=O)CC1C(=O)NCCN1Cc1cccc(F)c1F (stereo unspecified),1%,-13,0.7,-9.4,i,1.7,-2.9
COc1ccc(NC(=O)CSc2nc3c(c(-c4cccs4)c2C#N)CN(C)CC3)cc1OC,?,5.6,0.71,nt,nt,-4.2,-12
COc1ccc(CCC(=O)OCC(=O)NC(=O)c2ccc(Cl)cc2)cc1,-4%,0.7,0.7,-5.2,i,nt,9.0
O=C(CSc1ncn(-c2ccccc2)n1)N1CCc2ccccc21,-2%,1.8,0.76,nt,nt,nt,2.7
CCOc1ccc(CCNC(=O)COC(=O)c2cccc(S(=O)(=O)N(C)C)c2)cc1OCC,nt,6.3,0.72,2.3,i,nt,-0.2
COc1ccc(N(C(=O)c2ccncc2)S(=O)(=O)c2ccccc2)cc1,-1%,-0.9,0.71,-1.5,i,-0.6,1.5
COc1ccc(N(C)C(=O)c2oc(=O)c3ccccc3c2-c2ccccc2)c(OC)c1,nt,4.2,0.69,4.4,i,1.0,3.7
COC(=O)C1CCN(C(=O)c2ccccc2NC(C)=O)CC1,31%,6.7,0.7,nt,nt,-0.6,-1.0
Nc1ncnc2c1ncn2[C@@H]1O[C@H](CNCc2ccc(OCc3ccccc3)cc2)[C@@H](O)[C@H]1O,4%,1.2,0.66,6.1,i,nt,-1.4
Cc1ccc(C)c(S(=O)(=O)N2CCN(C(=O)c3n[nH]c(=O)c4ccccc34)CC2)c1,nt,0.8,0.69,1.1,i,nt,-3.9
Cc1ccccc1C1=N/C(=C/c2cccs2)C(=O)O1,1%,4.3,0.71,3.9,i,2.0,-1.6
CCNC(=O)CSc1nnc(-c2cccc(S(=O)(=O)N3CCOCC3)c2)o1,5%,2.6,0.57,3.8,i,nt,-1.8
O=C(CN1CCC(NC(=O)C2CC2)CC1)Nc1cccc(F)c1,nt,3.2,0.68,-2.0,i,4.2,0.1
COc1ccc(Cc2c(-c3cccc(Cl)c3)nc3ccc(Cl)cn23)c(C)c1,nt,nt,nt,2.9,i,nt,16
CCCn1c(C)cc(/C=C(\C#N)C(=O)OCC(=O)N(C)c2c(N)n(Cc3ccccc3)c(=O)[nH]c2=O)c1C,1%,7.6,0.64,2.7,i,3.0,6.7
O=C(c1ccccc1[N+](=O)[O-])N1CCN(Cc2ccc3c(c2)OCO3)CC1,nt,-2.4,0.69,nt,nt,-0.1,5.9
O=C(NCc1ccncc1)c1cccc(NS(=O)(=O)c2ccc(F)c(F)c2)c1,5%,4.1,0.71,1.1,i,nt,-3.8
O=[N+]([O-])c1cc(C(F)(F)F)ccc1N1CCCNCC1,?,4.7,0.68,4.3,i,0.8,1.8
Cc1cc(C(=O)Nc2ccc(Br)cc2)cs1,-9%,4.3,0.7,1.5,i,1.0,5.0
C=CCNC(=O)CSc1nnc(-c2cccc(S(=O)(=O)N3CCOCC3)c2)o1,0%,nt,nt,-4.4,i,nt,7.5
COc1ccc(OC)c2sc(NC(=O)C3=COCCO3)nc12,-6%,-69,0.78,-4.1,i,-3.2,-0.9
O=C(CN1C(=O)c2cccc3cccc1c23)NC1CCCC1,nt,-14,0.64,-2.2,i,0.9,-2.0
COc1ccccc1N1CCN(C(=O)c2cc3c(=O)n4cccc(C)c4nc3s2)CC1,nt,-345,0.66,-1.4,i,31*,-0.3
CCCn1c(S(=O)(=O)O)nc2ccccc21,-7%,0.9,0.69,-4.8,i,-3.0,-0.1
Cc1ccc(S(=O)(=O)NCC(=O)OC(C)C(=O)c2ccccc2)cc1 (stereo unspecified),4%,-0.1,0.7,0.5,i,?,2.0
FC(F)Oc1ccc(-n2cc(-c3ccccc3)[n+]3c2CCCCC3)cc1,15%,3.0,0.64,-0.2,i,3.3,1.2
CCOC(=O)c1c(NC(=S)SC)sc(C(=O)N2CCc3ccccc3C2)c1C,-5%,nt,nt,4.3,i,nt,-0.2
COC(=O)c1ccccc1NC(=S)NC(=O)c1ccccc1,1%,-0.9,0.69,nt,nt,4.7,-1.4
CN(C)/C=N/c1c(C#N)cnn1C,1%,nt,nt,-1.0,i,3.6,-0.3
O/N=C1/C2C3C(Br)C4C5CC(C1C53)C24 (stereo unspecified),8%,nt,nt,nt,nt,-4.9,2.4
COc1ccc(OCc2cc(C(=O)N(Cc3nccn3C)C(C)C)no2)c2ccccc12,6%,9.2,0.7,7.9,i,-1.5,-2.5
O=S(=O)(c1ccccc1)N1N=C(c2ccc(O)cc2)CC1c1ccco1 (stereo unspecified),8%,2.1,0.71,-1.7,i,5.4,9.8
CS(=O)(=O)N(CC(=O)N1CCc2ccccc2C1)Cc1ccc(Cl)cc1,1%,3.9,0.72,nt,nt,-5.9,-0.3
COc1ccccc1N=C1SC(C)CN1C(=O)C1CCC1 (stereo unspecified),-4%,1.8,0.69,nt,nt,1.1,nt
Cc1ccccc1C(=O)NCCCNC(=O)c1ccco1,-9%,2.1,0.69,-18,i,2.5,2.2
C#CCn1c(=NC(=O)CN2C(=O)CCC2=O)sc2cc(S(N)(=O)=O)ccc21,24%,0.0,0.67,nt,nt,-1.4,1.2
COc1ccc(C(=O)N2CCN(S(=O)(=O)c3ccc(C)cc3C)CC2)cc1S(=O)(=O)N1CCOCC1,nt,0.5,0.68,1.3,i,nt,0.1
CC(O)[C@@H](C(=O)N1CCNCC1)n1cc(CCCCN)nn1 (stereo partly specified),-2%,4.7,nt,nt,i,-2.4,-2.9
CCOC(=O)C1=C(C)N=c2s/c(=C\c3ccc(OCC(=O)O)c(OC)c3)c(=O)n2C1c1ccc(OC)cc1 (stereo unspecified),8%,nt,nt,7.8,nt,0.8,1.2
COc1ccc(/C=C/C(=O)c2cccc(-n3cnnn3)c2)cc1O,nt,8.1,0.7,-19,i,-0.9,-3.4
O=C(c1cccc(N2C(=O)C3C4C=CC(C4)C3C2=O)c1)N1CCN(c2ccccc2)CC1 (stereo unspecified),7%,-1.7,0.69,-5.6,i,5.8,-1.8
CC(C)C(OC(=O)c1ccco1)C(=O)NCc1ccco1 (stereo unspecified),0%,0.9,0.69,nt,nt,-2.2,0.6

# Four entries drawn at random from the list so far:
SMILES,Vif TR-FRET,UCH37 DUB inh,E coli growth,MLL AF4-AF9 inh,FGF22 binding,RanGTP-Impb inh,HNF4A DNA FP
CS(=O)(=O)N(CC(=O)N1CCc2ccccc2C1)Cc1ccc(Cl)cc1,1%,3.9,0.72,nt,nt,-5.9,-0.3
O=C(c1cccc(N2C(=O)C3C4C=CC(C4)C3C2=O)c1)N1CCN(c2ccccc2)CC1 (stereo unspecified),7%,-1.7,0.69,-5.6,i,5.8,-1.8
C#CCn1c(=NC(=O)CN2C(=O)CCC2=O)sc2cc(S(N)(=O)=O)ccc21,24%,0.0,0.67,nt,nt,-1.4,1.2
COc1ccc(OCc2cc(C(=O)N(Cc3nccn3C)C(C)C)no2)c2ccccc12,6%,9.2,0.7,7.9,i,-1.5,-2.5

# (continued)
SMILES,Vif TR-FRET,UCH37 DUB inh,E coli growth,MLL AF4-AF9 inh,FGF22 binding,RanGTP-Impb inh,HNF4A DNA FP
COc1ccc(CNC(=O)CN2CCN(c3cccc(C)c3C)CC2)cc1,4%,4.2,0.65,-5.5,i,5.6,-1.3
CCOC(=O)c1ccc(N2C(=O)c3n[nH]c(C)c3C2c2ccc(O)cc2)cc1 (stereo unspecified),4%,4.8,0.69,nt,nt,5.4,-1.5
C=CCOC(=O)C1=C[C@H](c2csc3ccccc23)C[C@H](OCCCCO)O1,nt,0.9,nt,0.0&-3.0,i,5.6,-1.2
COc1ccc(C2c3sc(=O)[nH]c3SC3C(=O)N(c4ccccc4)C(=O)C32)cc1 (stereo unspecified),14%,3.3,0.75,8.0,i,-5.6,3.0
O=C(COC(=O)Cn1cnc2ccccc21)NCCC1=CCCCC1,3%,19,0.74,nt,nt,-4.8,-0.2
Cc1cccc(NC(=O)c2ccc(N3C(=O)C4C5C=CC(C6CC56)C4C3=O)cc2)c1 (stereo unspecified),-4%,-1.7,0.71,-0.5,i,2.3,-0.4
CN1CCN(C(=O)c2ccc(NS(=O)(=O)c3cccc([N+](=O)[O-])c3)cc2)CC1,-10%,-2.6,0.7,?,i,nt,-6.8
CCOc1ccc(C(C(=O)NCC2CCCO2)N(Cc2cccc(OC)c2)C(=O)c2snc(C(N)=O)c2N)cc1 (stereo unspecified),nt,-58,0.71,10,nt,8.1,0.3
O=S(=O)(O)c1cccc2cccc(Nc3ccccc3)c12,nt,-34,0.71,0.2,+,1.9,-5.1
COc1cc(/C=C/C(=O)Nc2cccnc2)cc(OC)c1OC,nt,-23,0.67,-0.9,i,5.5,-2.5
COc1cc(OC)c2c(C)cc(=O)oc2c1C(CCN1CCOCC1)c1ccc(N(C)C)cc1 (stereo unspecified),11%,-1.2,0.64,nt,i,-3.6,0.7

# Compound activity as filed in PubChem.
